HPGD inh: qHTS Assay for Inhibitors of HPGD (15-Hydroxyprostaglandin Dehydrogenase). 15-hydroxyprostaglandin dehydrogenase [NAD(+)] (Homo sapiens), P15428. Potency, µM, inactives show top-dose activity change, negative = inhibition, usual class: inhibitors. actives 4.3% (n = 150,000). AID 894, 2007. purified HPGD, NADH fluorescence kinetic, PGE2 substrate; active = well fitted inhibition curve with a large enough effect (not every such curve was filed as active); inconclusive = small, poorly fitted or top-dose-only effect, or another doubt; inactive = no such curve, though single readings can be large or run the other way;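 further: top concentration of the series not given in the record; plate controls included wells without enzyme; inactives centre near -10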
Target sequence (P15428 whole entry, looked up): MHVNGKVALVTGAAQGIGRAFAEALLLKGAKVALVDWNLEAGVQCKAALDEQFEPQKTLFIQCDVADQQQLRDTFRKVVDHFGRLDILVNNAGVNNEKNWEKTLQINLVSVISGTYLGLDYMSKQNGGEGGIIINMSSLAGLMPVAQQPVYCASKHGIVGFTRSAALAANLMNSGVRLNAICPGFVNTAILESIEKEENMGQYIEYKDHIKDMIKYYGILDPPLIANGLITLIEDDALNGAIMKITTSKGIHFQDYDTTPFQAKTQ
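NADH formation kinetics: reaction with 30 uM PGE2 and 1 mM NAD+ (final), 20 nM enzyme, Tris-HCl pH 8 with Tween 20, after 15 min compound preincubation at room temperature. Fluorescence change, last versus first of five reads.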
An asterisk follows results filed as active; & = joins results of further samples. On the % scale 0 is the no-effect control and ±100 the full control effect; potency means the concentration at half of the fitted maximal effect. Only part of the results is shown; the hit share may differ from the screen's.

For O=c1oc2ccccc2nc1/C=C(O)/C=C/c1ccc(F)cc1 the results were HPGD inh inconclusive.
`CCn1c(SCc2nc3ccccc3s2)nnc1-c1ccccc1` gave HPGD inh -13%.
O=C(Oc1cccc2ccccc12)c1ccco1 was read as HPGD inh -12%.
`Cc1ccc(N2CC(C(=O)N3CCc4ccccc43)CC2=O)cc1` (configuration not stated) gave HPGD inh -16%.
`CS(=O)(=O)c1ccc(Cl)c(NC(=O)CSc2nc3ccccc3c(=O)n2CCCN2CCOCC2)c1` gave HPGD inh -4%.
c1ccn2c(Cc3nnc4ccccn34)nnc2c1 was read as HPGD inh -13%.
`CC1CCCN(C(=O)C2CCN(CC3CC=CCC3)CC2)C1` (configuration not stated) gave HPGD inh -22%.
For CCOC(=O)N1CCN(C(=O)C2CCCCC2)CC1 the results were HPGD inh -5%.
Screening Cc1cc([N+](=O)[O-])nn1CC(=O)N1CCc2ccccc2C1 returned HPGD inh -7%.
For O=C(CSc1cn(Cc2ccccc2)c2ccccc12)NCc1ccc(F)cc1 the results were HPGD inh -8%.
`CCN(CCO)C1CC(=O)N(c2ccccc2C)C1=O` (configuration not stated) gave HPGD inh -23%.
CN(C)S(=O)(=O)c1cccc(-c2nnc(SCc3ccc4c(c3)OCCO4)o2)c1 was read as HPGD inh inconclusive.
For Cc1cc(=O)oc2c(C(=O)/C=C\c3cccs3)c(O)ccc12 the results were HPGD inh inconclusive.
COc1cccc(C2C(C#N)=C(N)Oc3cc(N)ccc32)c1OC (configuration not stated) was read as HPGD inh -12%.
CCCCn1c(-c2ccsc2)nc2c1c(=O)[nH]c(=O)n2CCC was read as HPGD inh inconclusive.

Among those listed so far, these have a carbonyl joined to an NH by a bond outside any ring:
`CS(=O)(=O)c1ccc(Cl)c(NC(=O)CSc2nc3ccccc3c(=O)n2CCCN2CCOCC2)c1` gave HPGD inh -4%.
For O=C(CSc1cn(Cc2ccccc2)c2ccccc12)NCc1ccc(F)cc1 the results were HPGD inh -8%.

Remaining list, next part.
For CCc1ccc2[nH]c(=O)c(CN(Cc3ccc(OC)cc3)Cc3nnnn3CCOC)cc2c1 the results were HPGD inh inconclusive.
CC(C)Oc1ccc(NC(=O)C2CCCNC2=O)cc1 (configuration not stated) was read as HPGD inh -16%.
For CCCOC(=O)C1=C(C)NC2=C(C(=O)C(C(=O)OC)C(C)C2)C1c1ccc(N(C)C)cc1 (configuration not stated) the results were HPGD inh -10%.
`COc1cccc(-c2nc3n(n2)C(c2ccccc2Cl)C(C(N)=O)=C(C)N3)c1` (configuration not stated) gave HPGD inh -12%.
CC1Cc2ccccc2N1C(=O)CSC1=NCCS1 (configuration not stated) was read as HPGD inh -18%.
COc1cc(C)ccc1OCCOc1c(C)cc(Cl)cc1Cl was read as HPGD inh -13%.
For CCc1nnc(-n2nc(C)cc2-c2ccccc2)n1N the results were HPGD inh -11%.
For CC(C)(C)n1nnnc1C(c1cccs1)N1CCCC2(CCCCC2)C1 (configuration not stated) the results were HPGD inh -8%.
`Cc1c(Cl)cccc1NC(=O)CSc1ncnc2c1cnn2CCc1ccccc1` gave HPGD inh -10%.
COC(=O)c1ccc(NS(=O)(=O)c2ccc(OC)cc2)cc1 was read as HPGD inh -17%.
For O=C(c1ccc(COc2ccccc2Cl)o1)N1N=C(C(F)F)CC1(O)C(F)F (configuration not stated) the results were HPGD inh -9%.
For Clc1ccccc1SCc1nc2ccccc2[nH]1 the results were HPGD inh -5%.
For CC(=O)c1ccc(NC(=O)C2CCCNC2=O)cc1 (configuration not stated) the results were HPGD inh -19%.
`O=C(Nc1ccc2c(c1)OCO2)NC1(C(F)(F)F)Oc2ccccc2O1` gave HPGD inh 3%.
For Cc1ccc(-c2nc3ncccn3c2NC2CCCC2)o1 the results were HPGD inh -19%.
`Cc1nn(Cc2ccc(Cl)cc2)c2sc(C(=O)OCC(N)=O)cc12` gave HPGD inh -6%.
Cc1cccc(C)c1NC(=O)CSc1nc2ccccc2c(=O)[nH]1 was read as HPGD inh -25%.
CCCCCCCNS(=O)(=O)c1cccc2c(Cl)cccc12 was read as HPGD inh -9%.
`CCOC(=O)c1c(/N=C/C2C(=O)CCCC2=O)sc(C)c1C` gave HPGD inh -7%.
COc1ccc(NC(=O)/C(=C/c2ccc3c(c2)OCO3)NC(C)=O)cc1 was read as HPGD inh -19%.
Screening CCc1c(C(C)O)oc2ccc3c(C)cc(=O)oc3c12 (configuration not stated) returned HPGD inh inconclusive.
For Cc1cc(-c2n[nH]c(=S)n2/N=C/C=C/c2ccccc2)n[nH]1 the results were HPGD inh 16µM*.
Cc1ccnc(NC(=O)C2CCN(S(=O)(=O)c3cccc4nonc34)CC2)c1 was read as HPGD inh -1%.
`CCOc1ccc(OCC)c(NC(=O)CN2CCN(C(=O)c3ccco3)CC2)c1` gave HPGD inh -2%.
For CCOC(=O)c1c(C)c(C(=O)Nc2cc(F)ccc2F)c(C)n1C the results were HPGD inh -2%.
C[N+](C)(CC#Cc1ccccc1)CC(=O)c1ccc(Cl)cc1 was read as HPGD inh -1%.
CCOC(=O)c1c(C)[nH]c(N=Nc2ccc(C)cc2)c1C was read as HPGD inh -22%.
Screening COc1ccc(OC)c2[nH]c(=O)c(CCNC(=O)C(C)(C)C)cc12 returned HPGD inh -10%.
COc1cc(/C=N/n2cnc3scc(-c4cccs4)c3c2=O)cc(OC)c1OC was read as HPGD inh inconclusive.
CCOc1ccc(CN(Cc2ccco2)C(c2cccs2)c2nnnn2C(C)(C)C)cc1 (configuration not stated) was read as HPGD inh -24%.
For O=C(Cn1nc(-c2ccccc2)ccc1=O)NCC1CCCO1 (configuration not stated) the results were HPGD inh -11%.
`CN(C)c1ccc(-n2cc3c(=O)n(C)c(=O)n(C)c3c2)cc1` gave HPGD inh inconclusive.
Screening COc1ccc(C2/C=C\CN(CC(C)C)CC(=O)N2Cc2cccc(F)c2)cc1 (configuration not stated) returned HPGD inh -5%.
Cc1ccc2occ(CN3CCN(c4ccccc4)CC3)c(=O)c2c1 was read as HPGD inh 1%.
`CCSC1=C(C#N)C(c2cccc(Br)c2)CC(=O)N1` (configuration not stated) gave HPGD inh -12%.
For O=[N+]([O-])c1cccc(-c2ccc(C(=S)N3CCN(c4ccc(F)cc4)CC3)o2)c1 the results were HPGD inh -18%.
`C=CCn1c(=O)/c(=C2/SC(C)=C(C)N2CC)s/c1=C1/C(=O)N(CC)C(=S)N1c1ccccc1` gave HPGD inh -7%.
C=C(CC1([C@@H](NP(=O)(c2ccccc2)c2ccccc2)[C@H]2C[C@@H]2CCN(C(=O)OCC)S(=O)(=O)c2ccc(C)cc2)CC1)c1ccccc1 was read as HPGD inh -11%.
Screening CNc1cc(N2CCCCCC2)ccc1[N+](=O)[O-] returned HPGD inh inconclusive.
For Cc1c(NC(=O)c2ncn[nH]2)cccc1-c1nc2ccccc2s1 the results were HPGD inh -12%.
CC(C)c1nnc(NC(=O)CCN2C(=O)c3ccccc3C2=O)s1 was read as HPGD inh -11%.
CCc1nnc2sc(-c3ccc(NC(=O)c4ccco4)cc3)nn12 was read as HPGD inh -15%.
Screening COc1ccccc1N1CCN(c2cc(N3CCCC3)nc(C)n2)CC1 returned HPGD inh -8%.
For COc1ccc(-c2cc(=O)c3ccccc3o2)cc1OC the results were HPGD inh inconclusive.
Screening Cc1c(C2(c3c(C)n(C)n(-c4ccccc4)c3=O)C(=O)Nc3ccc(F)cc32)c(=O)n(-c2ccccc2)n1C returned HPGD inh -8%.
`Cc1cc(C)c(S(=O)(=O)N2CCCCC2)c(C)c1N(C)S(=O)(=O)c1ccc(Cl)cc1` gave HPGD inh -8%.
`NS(=O)(=O)c1ccc(N=Nc2ccc(O)c(C(=O)O)c2)cc1` gave HPGD inh -17%.
`CCC(=O)Nc1ccc(S(=O)(=O)N2CCN(c3ccc(F)cc3)CC2)cc1` gave HPGD inh -3%.
For CCOC(=O)N1C2=NC(C(=O)OC)=C(C(=O)OC)[C@@H]3Nc4ccccc4[C@]23C[C@H]1C(=O)OC the results were HPGD inh -2%.
Screening Cc1ccc(C)c(NC(=S)N/N=C2/CCCCc3ccccc32)c1 returned HPGD inh -12%.
COc1ccc(OC)c(C2CC(=O)NC(SC)=C2C#N)c1 (configuration not stated) was read as HPGD inh -16%.
For Cc1c(Br)c([N+](=O)[O-])nn1C(C)C(=O)Nc1ccc2c(c1)OCO2 (configuration not stated) the results were HPGD inh -6%.
Screening CCOC(=O)c1c(C)n(C)c2ccc(OC(C)C(=O)OC)cc12 (configuration not stated) returned HPGD inh 5%.
Screening COc1ccc(-c2nnc(-c3cccs3)o2)cc1OC returned HPGD inh inconclusive.
`CC(CCc1ccccc1)NC(=O)c1ccc(C(=O)NC(C)CCc2ccccc2)cc1` (configuration not stated) gave HPGD inh -5%.
CCCCC(=O)Nc1ccc2c(c1)oc1ccccc12 was read as HPGD inh -8%.
`O=C(CCC(=O)N1CCc2ccccc2C1)N1CCN(S(=O)(=O)c2ccccc2)CC1` gave HPGD inh -2%.
`COc1cc(NC(=O)c2ccccc2)cc(OC)c1` gave HPGD inh -24%.
For COc1ccc(-n2cnnc2SCC(=O)NC2CCS(=O)(=O)C2)cc1 (configuration not stated) the results were HPGD inh -9%.
Screening Cc1ccc(S(=O)(=O)NCCCCCC(=O)Nc2ccccc2C)cc1 returned HPGD inh -1%.

As a short view, some entries already given.
Screening COc1ccc(-c2nnc(-c3cccs3)o2)cc1OC returned HPGD inh inconclusive.
`CC(CCc1ccccc1)NC(=O)c1ccc(C(=O)NC(C)CCc2ccccc2)cc1` (configuration not stated) gave HPGD inh -5%.
CCCCC(=O)Nc1ccc2c(c1)oc1ccccc12 was read as HPGD inh -8%.
`O=C(CCC(=O)N1CCc2ccccc2C1)N1CCN(S(=O)(=O)c2ccccc2)CC1` gave HPGD inh -2%.
`COc1cc(NC(=O)c2ccccc2)cc(OC)c1` gave HPGD inh -24%.
For COc1ccc(-n2cnnc2SCC(=O)NC2CCS(=O)(=O)C2)cc1 (configuration not stated) the results were HPGD inh -9%.
Screening Cc1ccc(S(=O)(=O)NCCCCCC(=O)Nc2ccccc2C)cc1 returned HPGD inh -1%.

(continued)
`Cc1cc(N)n2nc(C)c(-c3ccccc3)c2n1` gave HPGD inh -23%.
Screening COc1ccccc1NC1C=CS(=O)(=O)C1 (configuration not stated) returned HPGD inh -11%.
`C=CCn1c(CCC(O)CCCCC)n[nH]c1=S` (configuration not stated) gave HPGD inh -3%.
CC(C)N(C(=O)Cn1cnc2c(cnn2-c2ccccc2Cl)c1=O)C(C)C was read as HPGD inh -15%.
`O=C(c1ccco1)N1CCC[C@@]2(CCN(c3ncccn3)C2)C1` gave HPGD inh -18%.
Screening Cc1ccccc1NC(=O)Cn1c(C)nc2ccc(NC(=O)C3CC3)cc2c1=O returned HPGD inh -26%.
`CCOC(=O)C1C(=O)CC(C)(O)C(C(=O)OCC)C1c1ccc(OC)cc1` (configuration not stated) gave HPGD inh -7%.
`O=C(Cn1ncc2c(=O)oc3ccccc3c21)Nc1nc2ccccc2s1` gave HPGD inh -1%.
For COc1ccc(CCNc2cc(N3CCN(C(=O)c4ccc(C)cc4)CC3)ccc2[N+](=O)[O-])cc1OC the results were HPGD inh -13%.
For c1ccc(-n2ncc3c(N4CCCCC4)ncnc32)cc1 the results were HPGD inh 18µM*.
CCOC(=O)C1=C[C@]2(CC)CCCN3CCc4c(n1c1ccccc41)[C@@H]32 was read as HPGD inh -17%&-14%.
CCn1c2ccccc2c2nnc(SCC(=O)Nc3ncccn3)nc21 was read as HPGD inh -4%.
For CCC(Sc1ncccn1)C(=O)Nc1cc(C)on1 (configuration not stated) the results were HPGD inh -12%.
`CCN1CCN(CC(=O)N2c3ccccc3CC2C)CC1` (configuration not stated) gave HPGD inh -8%.
Screening CCn1c(SCc2ccc(C(=O)OC)o2)nnc1-c1c[nH]c2ccccc12 returned HPGD inh -13%.

2 entries picked at random from those above:
Screening CNc1cc(N2CCCCCC2)ccc1[N+](=O)[O-] returned HPGD inh inconclusive.
For CCc1ccc2[nH]c(=O)c(CN(Cc3ccc(OC)cc3)Cc3nnnn3CCOC)cc2c1 the results were HPGD inh inconclusive.

Carrying on.
CCOC(=O)N1CCN(c2c(N3CCN(c4cccc(C(F)(F)F)c4)CC3)c(=O)c2=O)CC1 was read as HPGD inh -6%.
`CCS(=O)(=O)N1CCC(C(=O)NCc2cc(OC)ccc2OC)CC1` gave HPGD inh -11%.
Cc1cccc(CCNC(=O)CN(C)S(=O)(=O)c2ccc3c(c2)c(=O)n(C)c(=O)n3C)c1 was read as HPGD inh -11%.
For Fc1cccc(Cl)c1CNCc1ccccc1Cl the results were HPGD inh -19%.
For O=C(CCCn1cnc([N+](=O)[O-])n1)Nc1ccc(Cl)c(Cl)c1 the results were HPGD inh -4%.
CC(=O)C1=C(O)C(=O)N(c2cccnc2)C1c1ccc(Cl)cc1 (configuration not stated) was read as HPGD inh -29%.
Screening COc1ccc(/C=N/NC(=O)CN(Cc2ccccc2)S(=O)(=O)c2ccc3c(c2)OCCO3)cc1 returned HPGD inh -27%.

Entries from the list above that have a CF3 group (2):
`O=C(Nc1ccc2c(c1)OCO2)NC1(C(F)(F)F)Oc2ccccc2O1` gave HPGD inh 3%.
CCOC(=O)N1CCN(c2c(N3CCN(c4cccc(C(F)(F)F)c4)CC3)c(=O)c2=O)CC1 was read as HPGD inh -6%.
